MT1-MMP act inh – MT1-MMP (human) activation inhibition; P50281; HT1080 RFP-PRO-GFP cells, GFP/RFP ratio fluorescence, overnight; percent of plate control window, DMSO zero; GFP/RFP ratio change, % at 20 µM; 0.061% of 360,000 active; AID 651647;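 active means GFP/RFP ratio change of at least 30% with cell ATP level not reduced by more than half and red fluorescence within 50% of control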; further: strong numbers were not always called active
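Test system: HT1080 RFP-PRO-GFP cells; Benchmarks: DMSO and RFP-L50D-GFP cell wells; Timing: cells overnight before dosing, compound overnight, 37 °C, 5% CO2; Compound: one 20 µM compound dose with 1% DMSO; Read-out: GFP/RFP fluorescence ratio.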
Env fusion inh – HIV envelope-mediated fusion inhibition; AID 651610; inhibition, % at 12.3 µM; 1.1% of 360,000 active; HeLa-JRFL Env/CEM21 cell fusion, luciferase;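 active means mean replicate inhibition score of at least 50 and every replicate individually at or above 50; inconclusive means only one of the two criteria met; inactive means mean below 50 and not all replicates reaching 50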;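 further: 0% = plate neutral controls and 100% = maraviroc near 300 nM; one replicate is shown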
MT1-MMP act inh RFP – also measured in MT1-MMP act inh; calls as there; RFP signal change, %; measured here: RFP expression control read;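 0 = vehicle wells; hits needed this value within 50% of zero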
Active calls of the source: *; ? = inconclusive.

#1 CCC(c1nnnn1-c1ccc2c(c1)OCCO2)N1CCN(c2ccccc2)CC1 (stereo unspecified)
#2 Cc1cccc(C)c1NC(=O)C1(C)CN(S(C)(=O)=O)CC(=O)N1C1CC1 (stereo unspecified)
#3 COc1ccc(NC(=O)C(c2ccccc2)n2c(=O)c(-c3ccco3)nc3ccccc32)cc1 (stereo unspecified)
#4 Cc1ccc(OCc2nc3ccccc3n2C(C(=O)NC(C)(C)C)c2ccccc2)cc1 (stereo unspecified)
#5 CC(C)c1ccc(S(=O)(=O)N2CCN(C(=O)[C@@H]3CCCN3C(=O)c3cccs3)CC2)cc1
#6 O=C(C[n+]1ccc(C(=O)c2ccccc2)cc1)Nc1cccc([N+](=O)[O-])c1
#7 Clc1ccc2c(c1)-c1ccccc1C1=NCCN12
#8 Cc1ccc2nc(N)nnc2c1
Compound | 1 | 2 | 3 | 4 | 5 | 6 | 7 | 8
MT1-MMP act inh | 1 | 5 | -5 | 0 | -10 | 7 | 8 | 6
MT1-MMP act inh RFP | -6 | 5 | 0 | -5 | -6 | 5 | 6 | 3
Env fusion inh | 1 | -7 | -18 | -12 | -15 | -9 | 12 | -19

#9 COc1cccc(C(C)=C2SC(=S)NC2=O)c1
#10 CCCc1ccc(S(=O)(=O)N2CCN(C(C)C(=O)NCc3ccccc3)CC2)cc1 (stereo unspecified)
#11 O=C(Nc1c(Cl)cccc1Cl)Oc1cccc2cccnc12
#12 COc1ccc(N2CCN(C(=O)C(=O)c3cc(OC)c(OC)c(OC)c3)CC2)cc1
#13 O=C1NC[C@H](CCCCN2C[C@H](Cc3ccccc3)N(Cc3ccccc3)C(=O)C2=O)N(CCc2ccccc2)C1=O
#14 CCc1ccc(/C=C2\SC(=S)N(CCCC(=O)N3CCCC3)C2=O)cc1
#15 CCN(C)C1CN(Cc2cn(Cc3ccc(C(F)(F)F)cc3)nn2)S(=O)(=O)C1 (stereo unspecified)
#16 O=C1NC[C@H](Cc2ccccc2)N(C[C@@H]2CCCN2C[C@H](Cc2ccc(O)cc2)N2C[C@H](Cc3ccccc3)N(CC3CCCCCC3)C(=O)C2=O)C1=O
Compound | 9 | 10 | 11 | 12 | 13 | 14 | 15 | 16
MT1-MMP act inh | -3 | -7 | -3 | -3 | 2 | -2 | 3 | -2
MT1-MMP act inh RFP | 3 | -6 | -5 | -2 | 3 | 5 | 3 | -4
Env fusion inh | -29 | -6 | ? | 28 | -146 | 8 | 2 | 2

#17 Fc1cccc(F)c1C(Nc1nncs1)Nc1nncs1
#18 O=c1[nH][nH]c2c1[C@H](CCc1cccc(Cl)c1)O[C@H](C1CC1)C2
#19 COc1ccc(NC(=O)C[C@@H]2C(=O)N(c3ccc(OC)cc3)CC2(C)C)cc1
#20 CC1(C)CN(c2ccccc2)C(=O)[C@H]1CC(=O)Nc1ccccc1
#21 CC(C)(C)OC(=O)N1CCC[C@@H]1C(=O)NCc1ccccc1Cl
#22 COC(=O)[C@]12CCCCC=C1N(Cc1ccc(Cl)cc1Cl)C(=O)[C@H](CC(=O)N1CCC(c3ccccc3)CC1)C2
#23 Cc1ccc(C)c(SCC(=O)Nc2cc(S(=O)(=O)N3CCOCC3)ccc2C)c1
#24 CCCCn1nnnc1C(c1cc2ccccc2o1)N1CCN(c2cc(C)nc3ccccc23)CC1 (stereo unspecified)
Compound | 17 | 18 | 19 | 20 | 21 | 22 | 23 | 24
MT1-MMP act inh | 9 | 5 | 1 | 2 | -8 | -2 | 3 | 5
MT1-MMP act inh RFP | 6 | 4 | -4 | 6 | -30 | -9 | -4 | -3
Env fusion inh | 4 | 6 | 11 | -1 | 14 | -9 | -32 | 16

Part of the list above in order of heavy-atom count, high to low:
#24 CCCCn1nnnc1C(c1cc2ccccc2o1)N1CCN(c2cc(C)nc3ccccc23)CC1 (stereo unspecified)
#3 COc1ccc(NC(=O)C(c2ccccc2)n2c(=O)c(-c3ccco3)nc3ccccc32)cc1 (stereo unspecified)
#10 CCCc1ccc(S(=O)(=O)N2CCN(C(C)C(=O)NCc3ccccc3)CC2)cc1 (stereo unspecified)
Compound | 24 | 3 | 10
MT1-MMP act inh | 5 | -5 | -7
MT1-MMP act inh RFP | -3 | 0 | -6
Env fusion inh | 16 | -18 | -6

New compounds follow.
#25 Cc1cc2nc(-c3ccc(F)cc3)c(Cc3cccc(Cl)c3)n2c(C)c1Br
#26 COc1ccc(C(O)c2ncc(-c3cccc(F)c3)[nH]2)cc1F (stereo unspecified)
#27 CCCCNC(=O)C[C@@H]1C[C@@]2(C(=O)OCC)CCC=C2N(Cc2ccco2)C1=O
#28 CCCc1c(-c2cccc(Cl)c2)ncn1Cc1cccc(-c2ccccc2)c1
#29 COc1cccc(CNC(=O)[C@@H]2CCCN2C(=O)[C@H]2CCCCN2C(=O)c2cccc(Cl)c2)c1
#30 O=C(Nc1ccc(F)cc1)C(CCc1ccccc1)N1CCN(CC(=O)N2CCCC2)CC1 (stereo unspecified)
#31 O=C1NC[C@H](CCCCN2C[C@H](Cc3ccc(O)cc3)N(CCc3ccccc3)C(=O)C2=O)N(CCc2ccccc2)C1=O
#32 CCCCn1nnnc1C(c1cc2ccccc2o1)N1CCOCC1 (stereo unspecified)
Compound | 25 | 26 | 27 | 28 | 29 | 30 | 31 | 32
MT1-MMP act inh | 7 | 2 | 0 | -7 | -2 | 3 | 1 | 0
MT1-MMP act inh RFP | 0 | 1 | 2 | -19 | 1 | 4 | 5 | 2
Env fusion inh | -3 | -15 | 2 | 14 | -4 | -2 | 25 | 11

#33 O=c1[nH]c(=S)[nH]c2c1C(c1ccccc1)OC(C1CCCCC1)C2 (stereo unspecified)
#34 Cc1ccc2ccc(C(Nc3ccccc3)c3ccccc3)c(O)c2n1 (stereo unspecified)
#35 CCOC(=O)c1ccc(NC(=O)Nc2nc3ccccc3s2)cc1
#36 O=C(C1=NOC2(C1)C(=O)Nc1ccccc12)N1CCCC1 (stereo unspecified)
#37 C[C@H]1COc2cccc(N3CCC[C@@H]3CO)c2S(=O)(=O)N1
#38 CC(C)=CCC[C@H](C)C[C@@H]1CC2=C(C(=O)OC(C)(C)O2)[C@@H](c2ccc(F)cc2)O1
#39 COC(=O)c1ccc2c(c1)C(NC(C)=O)CCc1cc(OC)c(OC)c(OC)c1-2 (stereo unspecified)
#40 O=C(C[C@H]1CC[C@H]2[C@@H](COC[C@@H](O)CN2S(=O)(=O)c2ccccc2)O1)N[C@@H]1CCN(Cc2ccccc2)C1
Compound | 33 | 34 | 35 | 36 | 37 | 38 | 39 | 40
MT1-MMP act inh | 3 | 0 | 0 | 2 | 4 | 1 | 23 | 2
MT1-MMP act inh RFP | 1 | -25 | 11 | 4 | 3 | -2 | 9 | 6
Env fusion inh | -11 | 6 | -4 | 5 | 49 | 5 | -2 | -6

#41 CC(=NNC(=S)N1CC2CCC(CC2)C1)c1ccncn1
#42 c1ccc(CNCCCNCCCCNCCCNCc2ccccc2)cc1
#43 CCCCC[C@H]1CCCCC[C@@H](O)C[C@@H](O)[C@@H](O)/C=C/C(=O)O1
#44 Cn1c(=O)c2[nH]c(CCCc3ccc([N+](=O)[O-])cc3)nc2n(C)c1=O
#45 O=C(CCCc1ccccn1)c1ccccc1
#46 COc1ccc(-c2ccc(CN3C(C)C(=O)N(Cc4cn(Cc5ccco5)nn4)CCS3(=O)=O)cc2)cc1 (stereo unspecified)
#47 Cn1c2c(c3ccccc31)CCN(CCCCN1CCN(c3ccccc3)CC1)C2=O
#48 COc1cc(Cc2cc(OC)c(O)c(OC)c2)cc(OC)c1O
Compound | 41 | 42 | 43 | 44 | 45 | 46 | 47 | 48
MT1-MMP act inh | 5 | -5 | 5 | -4 | 0 | -5 | 5 | 9
MT1-MMP act inh RFP | -4 | 2 | -10 | -3 | 3 | -12 | -3 | -2
Env fusion inh | 52 | -10 | -10 | -21 | 34 | 31 | 14 | -201

#49 O=C(Nc1ccc(F)cc1)C(c1ccccc1)N1CCN(c2ccncc2)CC1 (stereo unspecified)
#50 CC(C)n1nnnc1C1c2ccccc2C(=O)N1Cc1cccnc1 (stereo unspecified)
#51 COc1ccc(C(=O)C[C@@H]2OC[C@H](C(C)C)N2S(=O)(=O)c2ccc(C)cc2)cc1OC
#52 CC(C)[C@@H]1Cc2[nH][nH]c(=O)c2[C@H](C)O1
#53 CCCCCNC(=O)C(c1cc2ccccc2o1)n1c(=O)c(-c2cc3ccccc3[nH]2)nc2ccccc21 (stereo unspecified)
#54 COC(=O)[C@@]12C[C@@H](CC(=O)N3CCCC3)C(=O)N(Cc3ccco3)C1=CCC(C)(C)C2
#55 O=c1[nH]c2ccccc2c2ccc(Cl)cc12
#56 NC(=O)c1cc(S(=O)(=O)N2CCCC2)ccc1OCCOc1ccccc1F
Compound | 49 | 50 | 51 | 52 | 53 | 54 | 55 | 56
MT1-MMP act inh | 2 | 1 | -2 | 4 | -9 | 0 | 1 | -14
MT1-MMP act inh RFP | 7 | 6 | -5 | 2 | -6 | 2 | 0 | -5
Env fusion inh | -4 | -22 | -4 | 12 | 9 | 21 | -3 | 12

#57 CC(C)c1cc(Cn2c3ccccc3c(=O)n2C(C)Cn2cc(C3CC3)nn2)on1 (stereo unspecified)
#58 COC(=O)C1=CN(c2ccc(OC)cc2OC)C(N)=C(C#N)C1c1ccc(OC)cc1 (stereo unspecified)
#59 COC(=O)c1ccc2nc(-c3ccccc3)c(Cc3ccc(OC)cc3C)n2c1
#60 COC(=O)C[C@H]1CC[C@H](NC(=O)c2cccc(F)c2)[C@@H](CO)O1
#61 CCCCCCCCN1C(=O)[C@H](CC(=O)N2CCN(C(=O)OCC)CC2)C[C@@]2(C(=O)OC)CCCCC=C12
#62 CC(=O)N1C2=CCCC3CCCCC23c2ccccc21 (stereo unspecified)
#63 CCC(C)CN1C(=O)CSCC1(C)C(=O)Nc1c(C)cccc1C (stereo unspecified)
#64 COc1ccc(Cn2cc(CN3CC(N4CCN(Cc5ccccc5F)CC4)CS3(=O)=O)nn2)cc1 (stereo unspecified)
Compound | 57 | 58 | 59 | 60 | 61 | 62 | 63 | 64
MT1-MMP act inh | 6 | 6 | -4 | -1 | 4 | 3 | 5 | 6
MT1-MMP act inh RFP | 6 | 0 | 0 | 2 | -6 | -5 | 3 | -8
Env fusion inh | -5 | 0 | -33 | 13 | -6 | 8 | -5 | -18

#65 Cc1cccc(CN2CCC(CNC(=O)Nc3ccccc3F)CC2)c1
#66 CC1CCCN(C(=O)CN2C(=O)NC(C)(c3ccc4ccccc4c3)C2=O)C1 (stereo unspecified)
#67 CC(=NNC(=S)Nc1ccccc1Cl)c1ccccn1
#68 CC(C)C[C@@H]1CC2=C(C(=O)OC(C)(C)O2)[C@H](CCc2ccccc2)O1
#69 COc1cccc(CNC(=O)[C@@H]2CCCN2C(=O)[C@H]2CCCCN2C(=O)c2ccc(Cl)cc2)c1
#70 Oc1ccc(Br)c(CN2CCN(c3ncc(Cc4ccccc4)cn3)CC2)c1
#71 COc1ccc(C(CC(=O)O)c2cc(OC)c(OC)c(OC)c2)cc1OC (stereo unspecified)
#72 Cc1ccc(S(=O)(=O)N2CCC(=O)N([C@H](COCc3cccc(Cl)c3)Cc3ccccc3)CC2)cc1
Compound | 65 | 66 | 67 | 68 | 69 | 70 | 71 | 72
MT1-MMP act inh | 2 | -2 | 10 | 3 | -1 | 11 | 2 | -2
MT1-MMP act inh RFP | 1 | -4 | -4 | -3 | 5 | -13 | 3 | -15
Env fusion inh | 9 | 5 | 63* | 25 | -3 | 29 | -9 | 14

#73 COC(=O)C1=CN(c2ccc(F)cc2)C(N)=C(C#N)C1c1cccc(OC)c1OC (stereo unspecified)
#74 COc1ccccc1N(CC(=O)Nc1ccc(C)cc1Cl)S(=O)(=O)c1cccs1
#75 CC(C)C[C@@H]1Cc2[nH][nH]c(=O)c2[C@H](CCc2ccccc2)O1
#76 C=C(C(=O)c1ccccc1)C(NC(C)(C)C)c1ccccc1 (stereo unspecified)
#77 Cn1c(=S)c2[nH]c(SCCC(C)(C)C)nc2n(C)c1=O
Compound | 73 | 74 | 75 | 76 | 77
MT1-MMP act inh | -3 | -2 | 8 | 3 | 4
MT1-MMP act inh RFP | 0 | -1 | 3 | -31 | -16
Env fusion inh | 23 | 5 | 6 | -7 | 6

Structural class: the compounds so far with an NH in an aromatic ring
#18 O=c1[nH][nH]c2c1[C@H](CCc1cccc(Cl)c1)O[C@H](C1CC1)C2
#26 COc1ccc(C(O)c2ncc(-c3cccc(F)c3)[nH]2)cc1F (stereo unspecified)
#33 O=c1[nH]c(=S)[nH]c2c1C(c1ccccc1)OC(C1CCCCC1)C2 (stereo unspecified)
#44 Cn1c(=O)c2[nH]c(CCCc3ccc([N+](=O)[O-])cc3)nc2n(C)c1=O
#52 CC(C)[C@@H]1Cc2[nH][nH]c(=O)c2[C@H](C)O1
#53 CCCCCNC(=O)C(c1cc2ccccc2o1)n1c(=O)c(-c2cc3ccccc3[nH]2)nc2ccccc21 (stereo unspecified)
#55 O=c1[nH]c2ccccc2c2ccc(Cl)cc12
#75 CC(C)C[C@@H]1Cc2[nH][nH]c(=O)c2[C@H](CCc2ccccc2)O1
#77 Cn1c(=S)c2[nH]c(SCCC(C)(C)C)nc2n(C)c1=O
Compound | 18 | 26 | 33 | 44 | 52 | 53 | 55 | 75 | 77
MT1-MMP act inh | 5 | 2 | 3 | -4 | 4 | -9 | 1 | 8 | 4
MT1-MMP act inh RFP | 4 | 1 | 1 | -3 | 2 | -6 | 0 | 3 | -16
Env fusion inh | 6 | -15 | -11 | -21 | 12 | 9 | -3 | 6 | 6

A portion of the library. The share of hits here may be higher or lower than overall.
